RecA intein inh: Mtb RecA intein splicing inhibitors, primary screen, biochemical, fluorescence, HTS; Protein RecA (Mycobacterium tuberculosis (strain ATCC 25618 / H37Rv)), P9WHJ3; cell-free RecA intein splicing; inhibition, %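 (about 9 µM by stock and volumes)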; 290,000 tested, 0.75% active; AID 2221, 2009; in the data active means inhibition above about 30%; inconclusive means no clear call, values can overlap the other calls;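 further: 0% = vehicle wells and 100% = reference inhibitor control wells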
Target sequence (P9WHJ3 whole entry, looked up): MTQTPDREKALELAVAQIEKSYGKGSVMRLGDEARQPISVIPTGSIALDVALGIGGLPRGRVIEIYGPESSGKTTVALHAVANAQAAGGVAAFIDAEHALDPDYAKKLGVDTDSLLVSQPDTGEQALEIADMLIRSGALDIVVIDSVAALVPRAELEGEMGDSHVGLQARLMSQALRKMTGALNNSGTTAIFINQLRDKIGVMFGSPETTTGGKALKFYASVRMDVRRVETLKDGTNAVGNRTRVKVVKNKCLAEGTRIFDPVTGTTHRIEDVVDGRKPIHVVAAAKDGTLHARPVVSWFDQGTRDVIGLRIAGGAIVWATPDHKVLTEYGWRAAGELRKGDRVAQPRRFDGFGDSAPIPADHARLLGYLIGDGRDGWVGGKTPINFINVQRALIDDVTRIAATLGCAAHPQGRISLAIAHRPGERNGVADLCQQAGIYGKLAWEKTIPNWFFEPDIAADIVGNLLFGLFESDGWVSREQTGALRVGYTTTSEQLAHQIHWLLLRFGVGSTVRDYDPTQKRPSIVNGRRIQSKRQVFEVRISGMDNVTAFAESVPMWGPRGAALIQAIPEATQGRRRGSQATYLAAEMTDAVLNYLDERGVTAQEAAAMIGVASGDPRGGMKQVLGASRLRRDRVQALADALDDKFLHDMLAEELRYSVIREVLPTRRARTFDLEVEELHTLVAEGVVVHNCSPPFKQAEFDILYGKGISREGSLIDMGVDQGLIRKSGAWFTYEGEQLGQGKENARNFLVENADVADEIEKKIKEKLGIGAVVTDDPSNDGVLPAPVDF
Mtb betalactam: beta-lactam sensitization of Mtb H37Rv, H37Rv | inhibition, % at 25 µM | M. tuberculosis H37Rv growth with meropenem, percent inhibition; hits of this screen are not shown here | 330,000 tested, 0.27% active;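 active means about 74% or more and at least 40 points above the plate without the antibiotic, then above 30% in a dose series; inconclusive means first-round hits that could not be retested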;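 further: growth measured after seven days incubation then overnight dye step; 0% = bacteria only wells and 100% = bacteria with antibiotic; twin plates without the antibiotic show which effects depend on it; some results filed as inactive read as strong as hits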
Arbovirus anti: antivirals against arbovirus infection, primary screen, cell-based, full library, 10K replicate subset. arbovirus infection cell-based antiviral screen. inhibition, % at 10 µM. 200,000 tested, 0.37% active. AID 1251, 2008;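 active means inhibition from about 30%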;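 further: bluetongue infection of BSR cells; cell survival read as ATP light after 72 h; 0% = infected wells without compound and 100% = uninfected wells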
YopH PTP inh: YopH tyrosine phosphatase inhibitors, primary screen, biochemical, fluorescence Ex485/Em525; 140,000 tested, 0.16% active; YopH tyrosine phosphatase [Yersinia enterocolitica]; inhibition, %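 (about 10 µM by stock and volumes)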;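 active means inhibition of 50% or more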;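 further: controls were vehicle for no effect and minimum signal wells for full effect; inactives centre near -20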
Mtb growth: M. tuberculosis H37Rv growth inhibitors, H37Rv strain (AID 1626). M. tuberculosis H37Rv growth inhibition; higher % means a stronger effect. inhibition, % at 10 µM; hits with a dose series show IC50 in µM. 220,000 tested, 0.95% active;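 active means confirmed in a dose series; inconclusive means inhibition above 80% but not taken into the dose series; inactive means below 80% or under 30% at every dose of the series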;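 further: bacteria incubated seven days before Alamar blue readout; 0% = bacteria only wells and 100% = bacteria with antibiotic wells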
Active calls of the source: *; ? = inconclusive; nt = no result given. Not all compounds are listed; the hit share may differ from the screen's.

Screens in order – RecA intein inh | Mtb betalactam | Arbovirus anti | YopH PTP inh | Mtb growth
[1] N#C/C(=C\c1c(N2CCN(Cc3ccccc3)CC2)nc2ccccn2c1=O)S(=O)(=O)c1ccccc1
→ 0.4 | 0 | nt | nt | nt
[2] O=C(NNc1c(Cl)cc(Cl)cc1Cl)C1CCC1
→ -1.8 | -4 | -6 | -23 | 3%
[3] Cc1nn(C)c(Oc2ccccc2)c1CCNC(=O)CCl
→ 6.8 | 86 | 13 | nt | 41%
[4] COc1ccc(-n2ccnc(SCC(=O)NC3CCCC3)c2=O)cc1
→ -3.0 | -4 | nt | nt | nt
[5] Cc1cccc(NC(=O)c2cccc(S(=O)(=O)N3CCCC3)c2)n1
→ 1.3 | -5 | nt | nt | nt
[6] CCc1ccc(C(=O)O)cc1
→ 0.8 | -1 | nt | nt | -4%
[7] COc1ccc(C(=O)Nc2ccc(F)cc2F)cc1OC
→ 0.8 | -2 | 1 | -143 | -12%
[8] C/C(=N\O)C(C)Oc1ccc(Cl)cc1 (centres undefined)
→ -3.1 | 2 | 8 | nt | -3%
[9] O=C(Nc1ccc(Br)cc1)C1CCN(c2cnccn2)CC1
→ -0.3 | 4 | nt | nt | nt
[10] COc1ccc(CNC(=O)c2nnn(-c3cccc(C(F)(F)F)c3)c2N)cc1
→ -0.2 | 9 | 2 | nt | 0%
[11] CCc1n(CC(O)COC2CCCCC2)c2ccccc2[n+]1C (centres undefined)
→ 1.9 | -4 | -1 | nt | -1%
[12] CCCCc1n[nH]c2c1C(=O)CC(C)(C)C2
→ nt | -9 | 0 | -28 | -13%
[13] CC(=O)N(Cc1ccccc1)c1ccccc1C(=O)O
→ -4.2 | -5 | nt | nt | -1%
[14] CCN(c1ccccc1)S(=O)(=O)c1cccc(C(=O)N(C)CCOc2ccccc2)c1
→ 6.0 | -5 | nt | nt | nt
[15] CC1(C)CC2CN(C(=O)Cc3ccccc3)C(C)(C2)C1 (centres undefined)
→ 0.2 | -3 | 2 | nt | -4%

Shown screen by screen: entries from further up
1: N#C/C(=C\c1c(N2CCN(Cc3ccccc3)CC2)nc2ccccn2c1=O)S(=O)(=O)c1ccccc1
2: O=C(NNc1c(Cl)cc(Cl)cc1Cl)C1CCC1
3: Cc1nn(C)c(Oc2ccccc2)c1CCNC(=O)CCl

Screen / compound no.,1,2,3
RecA intein inh,0.4,-1.8,6.8
Mtb betalactam,0,-4,86
Arbovirus anti,nt,-6,13
YopH PTP inh,nt,-23,nt
Mtb growth,nt,3%,41%

Further compounds follow:
Screens in order – RecA intein inh | Mtb betalactam | Arbovirus anti | YopH PTP inh | Mtb growth
[16] Cc1ccc(S(=O)(=O)N/N=C/c2ccc(O)cc2O)cc1[N+](=O)[O-]
→ -3.3 | -1 | nt | nt | -1%
[17] CC(=O)c1cc2c(cc1NC(=O)c1cc3nc(C(C)C)cc(C(F)(F)F)n3n1)OCO2
→ -1.8 | 10 | 12 | -25 | 1%
[18] COc1ccc(NC(=O)NNC(=O)c2ccc(-c3ccccc3)cc2)c(OC)c1
→ 0.5 | 3 | nt | nt | nt
[19] CCN1C(=O)[C@@H]2[C@@H](c3ccc(-c4ccc(C(C)=O)cc4)cc3)N3CCCC[C@@]3(C(=O)OC)[C@@H]2C1=O
→ 5.9 | 48 | nt | nt | nt
[20] COc1ccc(/C=C/C(=O)c2sc(-c3ccc(Cl)cc3)nc2C)cc1
→ nt | nt | -3 | -58 | 2%
[21] Clc1ccc2nc(-c3ccc4c(c3)OCO4)cn2c1
→ -0.2 | 7 | -12 | nt | 5%
[22] CN(CCC#N)Cc1cc(=O)oc2ccc3ccccc3c12
→ 3.8 | -4 | nt | nt | -2%
[23] COc1ccnc(Oc2ccc(F)cc2)c1C(=O)N/C=N/OCc1ccc(F)cc1Cl
→ 0.2 | 8 | 17 | -45 | -6%
[24] O=C(CSc1nnc(SCc2ccc(Cl)cc2)s1)N/N=C/c1ccccc1C(=O)O
→ -3.9 | 5 | nt | nt | 5%
[25] CCCCCN(CCCCC)C(=O)C(CCC(=O)O)NC(=O)c1ccc(Cl)c(Cl)c1 (centres undefined)
→ 1.3 | 97 | nt | nt | 1%
[26] O=C1OC(N2CCN(C(=O)C3CCCO3)CC2)c2ccccc21 (centres undefined)
→ -1.8 | -1 | 3 | -45 | -6%
[27] COc1c(C)cccc1C(=O)NC(=S)Nc1cccc2nsnc12
→ 2.0 | nt | -10 | nt | -8%
[28] O=C(/C=C/c1ccc(OC2CSC2)cc1)c1ccccc1
→ 10 | ? | 14 | -19 | -2%
[29] O=C(NC(=S)Nc1ccc(S(=O)(=O)N2CCCCC2)cc1)c1cccs1
→ -0.9 | -1 | 4 | -15 | 1%
[30] N=c1c2c(n(Cc3ccc(Cl)cc3)c3c1CCC3)CCC2
→ 2.4 | -9 | 4 | -34 | 32%

More results.
Screens in order – RecA intein inh | Mtb betalactam | Arbovirus anti | YopH PTP inh | Mtb growth
[31] COC(=O)c1ccc(N(CC(=O)NC2CCCC2)C(=O)CNC(=O)c2ccco2)cc1
→ -3.3 | -2 | 3 | -30 | -4%
[32] CCC(=O)Nc1nc(C)c(-c2csc(Nc3ccc(S(=O)(=O)Nc4cc(C)on4)cc3)n2)s1
→ nt | nt | 8 | -55 | -5%
[33] COc1ccc(C(=O)CC(=O)c2ccc(OC)cc2)cc1
→ -1.7 | 11 | nt | nt | nt
[34] O=[N+]([O-])c1cc2c(cc1CN1CCN(c3ccccc3F)CC1)OCO2
→ -2.7 | -2 | nt | nt | nt
[35] Cc1ccc(C(=O)N[C@@H](Cc2ccccc2)C(=O)N2CCC3(CC2)NCCc2[nH]cnc23)cc1C
→ 0.8 | 4 | nt | nt | nt
[36] CCN(CC)C(=O)Oc1cc(=O)n(C)c2ccccc12
→ -3.3 | 0 | -2 | -37 | 2%
[37] CCN(CC)CCN(C(=O)c1cc2c(ccc3ccccc32)oc1=O)c1nc2cc3c(cc2s1)OCCO3
→ -8.3 | 7 | nt | nt | nt
[38] CN(C1CCCCC1)S(=O)(=O)c1ccc(S(=O)(=O)N(CC(=O)Nc2ccccc2)C2CC2)cc1
→ -0.7 | 0 | nt | nt | nt
[39] O=C(CCc1nnc(CCCCc2ccccc2)o1)N(CCO)Cc1ccccc1
→ 4.0 | 3 | -2 | nt | -1%
[40] CCOc1cccc(Nc2cc3n(c(=O)n2)CCc2cc(OC)c(OC)cc2-3)c1
→ -2.3 | -11 | -4 | -13 | 0%
[41] O=C(O)C1C2C=CC(C2)C1C(=O)NCCCN1CCCC1=O (centres undefined)
→ 1.1 | -4 | nt | nt | nt
[42] C=C1CCN([C@@H](C)C(=O)NCc2cc(OC)c(OC)c(OC)c2)S(=O)(=O)c2ccccc21
→ -2.3 | -16 | nt | nt | -13%
[43] CCCS(=O)(=O)N1CCC(C(=O)NCCCOC(C)C)CC1
→ 0.6 | -19 | -2 | -33 | -3%
[44] C=CCn1c(O)c(C(CC)=Nc2ccccc2NC(=O)CC)c(=O)[nH]c1=O
→ -3.2 | -1 | -3 | -1 | -1%
[45] CCSc1ccccc1C(=O)NCCc1ccccc1
→ -1.0 | 19 | -5 | nt | 4%

Next results follow.
Screens in order – RecA intein inh | Mtb betalactam | Arbovirus anti | YopH PTP inh | Mtb growth
[46] CC(Nc1nc(N2CCCC2)nc2ccccc12)c1ccccc1 (centres undefined)
→ 3.6 | 46 | -48 | -17 | 6%
[47] Cc1sc2ncnc(N(C)Cc3cccs3)c2c1C
→ 12 | 0 | 3 | 1 | 3%
[48] COc1cccc(-c2nnc(NC(=O)CCS(=O)(=O)c3ccc(C)cc3)o2)c1
→ -1.9 | 69 | nt | nt | nt
[49] O=c1c2ccccc2nc(-c2ccco2)n1CCCn1ccnc1
→ 0.2 | -4 | 4 | -39 | 5%
[50] COC(=O)c1nc(Cl)c(Cl)c(N)c1Cl
→ 1.3 | -2 | 9 | nt | -1%
[51] COc1ccccc1CNS(=O)(=O)c1cccc2nsnc12
→ 0.5 | -4 | nt | nt | nt
[52] COC(=O)N/N=C/c1cc(Br)ccc1O
→ -3.5 | -3 | 3 | nt | -7%
[53] COc1ccc(CNC(=O)C(c2ccco2)N(C(=O)CNS(=O)(=O)c2ccccc2)c2ccccc2C)cc1 (centres undefined)
→ 2.6 | 20 | -4 | -7 | 13%
[54] CC(C)(C)n1nnnc1CN1CCN(C(c2ccccc2)c2ccccc2)CC1
→ 12 | -2 | -7 | 2 | nt
[55] CCn1ccnc1CN1CCCC(C(=O)c2ccc3c4c(cccc24)CC3)C1 (centres undefined)
→ 0.6 | 36 | -1 | nt | 47%
[56] O=C(CSC(=S)N1CCCC1)NCCc1ccccc1
→ -2.5 | 0 | nt | nt | nt
[57] Cn1c(-c2cccc([N+](=O)[O-])c2)[n+](C)c2ccccc21
→ -2.9 | 6 | 10 | nt | 2%
[58] CCOc1ccc(C2NC(=O)c3ccccc3O2)cc1OC (centres undefined)
→ 3.2 | -5 | nt | nt | nt
[59] COc1ccc(-c2cc(C(=O)NCCCN3CCOCC3)no2)cc1
→ 0.3 | 6 | nt | nt | nt
[60] O=C(CCn1c(=O)oc2ccccc21)Nc1ccon1
→ 1.3 | -11 | -1 | -8 | 0%

The listing continues:
Screens in order – RecA intein inh | Mtb betalactam | Arbovirus anti | YopH PTP inh | Mtb growth
[61] COc1cc(S(=O)(=O)NCc2cccnc2)ccc1F
→ 1.2 | -4 | 1 | -19 | -14%
[62] CC1CCC(NC(=O)CN2C(=O)c3cccnc3Oc3ccc(Cl)cc32)CC1 (centres undefined)
→ 0.5 | ? | nt | nt | nt
[63] CC(C)(C)C(=O)Nc1sc(-c2ccccc2)cc1C(=O)O
→ 2.1 | 80 | nt | nt | 7%
[64] COc1cc(N=Nc2c(O)c3ccccc3[nH]c2=O)c(OC)cc1N=Nc1ccccc1
→ -3.9 | -8 | nt | nt | -8%
[65] CCOc1cc(/C=C/c2cc(C(=O)O)c3ccccc3n2)ccc1OC
→ -2.5 | -2 | 4 | -33 | -10%
[66] Cc1ccc(CCNC(=O)CS(=O)Cc2nc(-c3ccccc3F)oc2C)cc1 (centres undefined)
→ 1.3 | 3 | nt | nt | nt
[67] CCNC(=O)CC1S/C(=N/N=C(\C)c2ccccc2)NC1=O (centres undefined)
→ 0.0 | 5 | 5 | nt | 3%
[68] CNC(=O)COc1ccc2oc3c(c2c1)CCCC3
→ -0.3 | -1 | nt | nt | nt
[69] CCOC(=O)N1CCC(Nc2c(Nc3cccc(CC)c3)c(=O)c2=O)CC1
→ 0.1 | 95 | 36* | -36 | 12%
[70] CC(C(=O)N1CCN(C2c3ccccc3-c3ccccc32)CC1)N1C(=O)c2ccccc2C1=O (centres undefined)
→ 8.3 | ? | -2 | -31 | 5%
[71] CCC(CC)CN1C(Nc2ccccc2)=NC[C@@H]1CC(C)C
→ 0.6 | -6 | nt | nt | nt
[72] COCCn1c(SCC(=O)N2CCCCCC2)nnc1-c1ccco1
→ -2.0 | 1 | nt | nt | nt
[73] COc1cccc(/C=N/Nc2cc(-n3nc(C)cc3-c3ccccc3)ncn2)c1O
→ 5.4 | 15 | -22 | -12 | 7%

Compounds from the list above that contain a Cl atom (11):
Screens in order – RecA intein inh | Mtb betalactam | Arbovirus anti | YopH PTP inh | Mtb growth
[2] O=C(NNc1c(Cl)cc(Cl)cc1Cl)C1CCC1
→ -1.8 | -4 | -6 | -23 | 3%
[3] Cc1nn(C)c(Oc2ccccc2)c1CCNC(=O)CCl
→ 6.8 | 86 | 13 | nt | 41%
[8] C/C(=N\O)C(C)Oc1ccc(Cl)cc1 (centres undefined)
→ -3.1 | 2 | 8 | nt | -3%
[20] COc1ccc(/C=C/C(=O)c2sc(-c3ccc(Cl)cc3)nc2C)cc1
→ nt | nt | -3 | -58 | 2%
[21] Clc1ccc2nc(-c3ccc4c(c3)OCO4)cn2c1
→ -0.2 | 7 | -12 | nt | 5%
[23] COc1ccnc(Oc2ccc(F)cc2)c1C(=O)N/C=N/OCc1ccc(F)cc1Cl
→ 0.2 | 8 | 17 | -45 | -6%
[24] O=C(CSc1nnc(SCc2ccc(Cl)cc2)s1)N/N=C/c1ccccc1C(=O)O
→ -3.9 | 5 | nt | nt | 5%
[25] CCCCCN(CCCCC)C(=O)C(CCC(=O)O)NC(=O)c1ccc(Cl)c(Cl)c1 (centres undefined)
→ 1.3 | 97 | nt | nt | 1%
[30] N=c1c2c(n(Cc3ccc(Cl)cc3)c3c1CCC3)CCC2
→ 2.4 | -9 | 4 | -34 | 32%
[50] COC(=O)c1nc(Cl)c(Cl)c(N)c1Cl
→ 1.3 | -2 | 9 | nt | -1%
[62] CC1CCC(NC(=O)CN2C(=O)c3cccnc3Oc3ccc(Cl)cc32)CC1 (centres undefined)
→ 0.5 | ? | nt | nt | nt

Compound activity as filed in PubChem BioAssay.
